# D2 potentiator = Beta-Arrestin HTS for Positive Allosteric Modulators of the Human D2 Dopamine Receptor: Potentiators | 360,000 compounds, 0.23% hits | DiscoveRx D2 beta-arrestin cells, luminescence, 90 min; 100% = 57 uM dopamine signal | potentiation, % (no concentration beside the values) | AID 624464, 2012; active = potentiation of 50% or more; inconclusive = 30% to 50%; inactive = 30% or less;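 also: compound concentration not given in the record; tested on top of an EC20 dose of dopamine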
#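 PathHunter D2 cells, attached overnight at 37 deg C, received compound in DMSO plus dopamine at EC20 (50 nM final) for 90 min at 37 deg C. Beta-arrestin recruitment was read as luminescence after 1 h with detection reagent at ambient temperature.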
# TRPML1 agonist = qHTS for Agonists of the Human Mucolipin Transient Receptor Potential 1 (TRPML1). TRPML1-expressing cells, Ca2+ dye fluorescence, FDSS; host cell line not named in the record; reference of the full effect not given here. activation, % (concentration not given with the values). Mucolipin-1 (Homo sapiens), Q9GZU1. 410,000 compounds, 0.12% hits; in the data active = activation above about 50%; inconclusive = about 30% to 50%; inactive = below about 30%; also: 0% is about no effect; the text of the record puts the active cut at 80%
#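 Tet-induced TRPML1-DL cells, 1,500 per well, cultured overnight, were loaded with a no-wash Ca2+ dye for 45–90 min. Calcium fluorescence was recorded on the FDSS for 110 s after compound addition, before the EC80 agonist (4 uM 54-4) was added.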
# CtBP-E1A inh = qHTS Assay for Inhibitors of the CtBP/E1A Interaction | CtBP / adenovirus E1A interaction (AlphaScreen) | AlphaScreen GST-E1A/His-CtBP binding, 1536-well; stronger effect = lower value; control for the full effect not named in the record | activity change, % (concentration not given with the values) | 340,000 compounds, 0.49% hits | AID 651724, 2012; in the data active means activity change below about -65%; inconclusive means about -30% to -65%; inactive means above about -30%; also: % is scaled to controls: 0 for no effect and ±100 for the full control effect
#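 Steps: dispense buffer (Tris pH 8.0, NaCl 300 mM, TCEP 1 mM, BSA, Tween 20); add 5X protein mix (GST-E1A, His-CtBP, 125 nM each); pin 23 nL compound; 2 h at 37 °C, dark; add 5X beads (50 ug/mL); 1 h; read.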
# PINK1 expr mod = A Quantitative High throughput Screen to Identify Chemical Modulators of PINK1 Expression. 410,000 compounds, 0.2% hits. AID 624263, 2012. PINK1 immunofluorescence, high-content cytometry, 24 h. Potency, µM (series often up to 76.6 µM), for the others: at the highest dose activation (PINK1 increase), most hits filed as activators; active = well fitted activation curve with a large enough effect; inconclusive = small, poorly fitted or top-dose-only effect; inactive = flat fitted curve, though single readings scatter; cell line not stated here;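 also: potency is read from the fitted curve at half-maximal effect; % of control where 0% means no effect; nearly all actives have a fitted effect of over 65% in size; a mitochondrial uncoupler was the plate control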
#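 PINK1 protein level read as immunofluorescence by microplate cytometer in a fixed, stained stable cell line after 24 h exposure to five compound concentrations, with CCCP as control.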
# Six1-Eya2 blk = qHTS Assay for Inhibitors of the Six1/Eya2 Interaction; 360,000 compounds, 0.56% hits; Homeobox protein SIX1 (Homo sapiens) + Protein phosphatase EYA2 (Homo sapiens), …; AlphaScreen GST-Six1/His-Eya2 binding, biochemical; stronger effect = lower value; control for the full effect not named in the record; activity change, % (no concentration beside the values); in the data active = activity change below about -65%; inconclusive = about -30% to -65%; inactive = above about -30%; also: % is scaled to controls: 0 for no effect and ±100 for the full control effect
# Target sequence (O00167 whole entry, looked up): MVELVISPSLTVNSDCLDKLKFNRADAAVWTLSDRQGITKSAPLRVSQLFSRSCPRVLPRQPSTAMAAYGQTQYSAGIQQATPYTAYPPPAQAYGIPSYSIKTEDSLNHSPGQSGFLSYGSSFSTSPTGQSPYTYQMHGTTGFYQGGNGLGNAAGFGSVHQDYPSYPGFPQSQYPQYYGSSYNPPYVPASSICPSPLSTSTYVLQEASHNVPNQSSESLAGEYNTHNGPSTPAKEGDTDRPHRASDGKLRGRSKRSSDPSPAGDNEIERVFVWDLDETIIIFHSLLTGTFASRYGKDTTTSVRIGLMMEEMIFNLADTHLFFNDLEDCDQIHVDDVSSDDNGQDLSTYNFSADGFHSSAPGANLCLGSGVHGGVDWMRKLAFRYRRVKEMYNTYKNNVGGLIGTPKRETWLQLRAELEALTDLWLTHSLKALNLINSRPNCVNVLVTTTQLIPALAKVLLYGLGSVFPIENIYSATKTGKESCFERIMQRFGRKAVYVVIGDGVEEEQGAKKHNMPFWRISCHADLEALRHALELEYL
# Target sequence (Q15475 whole entry, looked up): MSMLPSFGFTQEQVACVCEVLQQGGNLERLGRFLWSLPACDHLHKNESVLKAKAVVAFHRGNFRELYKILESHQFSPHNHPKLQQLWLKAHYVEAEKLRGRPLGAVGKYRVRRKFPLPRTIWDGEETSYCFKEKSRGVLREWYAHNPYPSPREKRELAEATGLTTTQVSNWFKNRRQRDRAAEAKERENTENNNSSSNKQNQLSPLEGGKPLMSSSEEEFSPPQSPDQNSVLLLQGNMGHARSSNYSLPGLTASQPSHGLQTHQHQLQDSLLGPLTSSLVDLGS
#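 AlphaScreen with GST-Six1 and His-Eya2 (5X mix: 250 nM and 500 nM), glutathione donor and nickel acceptor beads; buffer 50 mM Tris pH 8.0, 300 mM NaCl, 1 mM TCEP; 1 h at 37 C in the dark.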
# D2 ag = Beta-Arrestin HTS for Positive Allosteric Modulators of the Human D2 Dopamine Receptor: Agonists. D(2) dopamine receptor (Homo sapiens), P14416. DiscoveRx PathHunter D2 beta-arrestin, luminescence, 90 min; 100% = 57 uM dopamine signal. activation, % (test concentration not listed). 360,000 compounds, 0.084% hits. AID 624465, 2012; in the data active = activation above about 40%; inconclusive = about 15% to 40%; inactive = below about 15%; also: compound concentration not given in the record; the text of the record calls up to 30% inactive
#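 DiscoveRx PathHunter D2 beta-arrestin cells (2,100/well) attached overnight, then compound-stimulated 90 min at 37 C in HBSS/10 mM HEPES/0.1% Tween-20 buffer; beta-galactosidase complementation read by luminescence after 1 h at ambient temperature. Dopamine 57 uM final (EC100) as control.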
# * hit, by the source's call; ? = inconclusive; nt = no result given; & = joins results of further samples; [ ] = another dose, or the depositor's remark.
# Order of results: D2 potentiator | TRPML1 agonist | CtBP-E1A inh | PINK1 expr mod | Six1-Eya2 blk | D2 ag
Cc1c(C(=O)N2CCN(c3ccccc3F)CC2)sc2nc(-c3ccccc3)cn12
 : -2.8 | -0.8 | 6.9 | -1.0% | 0.0 | -3.1
CC(C)N1CCc2c(sc(NC(=O)c3ccc(S(=O)(=O)N4CCOCC4)cc3)c2C(N)=O)C1
 : -9.4 | 0.1 | 0.2 | -0.6% | 4.9 | -0.4
COc1ccc(C(=O)NC(=S)NNC(=O)CNC(=O)C2CCCCC2)cc1
 : -8.9 | 0.4 | 0.3 | 1.3% | 5.9 | -5.3
Cc1ccc(Nc2c(-c3ccc(N4CCOCC4)cc3)nc3cnccn23)cc1
 : 4.6 | 2.4 | 0.0 | 1.4% | 4.1 | 4.8
CCCCN(CCCC)CCn1cnc2c([nH]c3ccc(OC)cc32)c1=O
 : -6.0 | 0.5&1.5 | -4.1 | 0.2%&-2.7% | -2.9 | -4.0
CC(C)c1ccc(NC(=O)c2snc3ccc(Cl)cc23)cc1
 : 2.7 | 0.1 | 6.7 | 12.1% | -6.2 | 1.2
N#CCN1CCCC(C(N)=O)C1 (stereo not given)
 : -2.6 | -0.3 | -0.4 | 3.3% | -0.7 | -6.4
Cc1[nH]c(=S)sc1Cc1ccc(F)cc1
 : -35.4 | 0.7 | 17.5 | 0.1% | 1.4 | -1.0
CC(=O)Nc1ccc(N(C(=O)CNC(=O)c2cccs2)C(C(=O)NCC2CCCO2)c2ccccc2)cc1 (stereo not given)
 : -28.3 | -1.2 | -6.7 | 2.7% | -7.5 | -4.1
Cc1csc(-c2cnn(-c3ccccc3)c2NC(=O)c2cccc(F)c2)n1
 : 1.1 | -1.4 | -10.8 | 0.5% | 5.0 | 2.3
O=c1c2[nH]cnc2n(-c2ccc(F)cc2)c(=O)n1Cc1ccccc1
 : -17.4 | nt | -0.4 | 0.6% | 3.7 | -7.2
Cc1ccc(S(=O)(=O)N2CCOCC2)cc1C(=O)OC(C)C(=O)NC1CCCC1 (stereo not given)
 : 2.5 | 0.0 | 5.0 | -0.3% | 8.0 | -0.7
COC(=O)c1ccc(CN2CCC(CO)(CCOc3ccccc3)CC2)cc1
 : -4.7 | 0.6 | -1.0 | -0.1% | -2.4 | -7.3
CCOc1ccc(N2C(=O)C3C(c4ccc(OC)cc4OC)NC(CCSC)(C(=O)OC)C3C2=O)cc1 (stereo not given)
 : -0.2 | -0.4 | -2.7 | 0.2% | -6.8 | -1.2
COc1ccc(N=C(NN)c2ccc3ccccc3n2)cc1
 : 17.4 | 0.6 | 1.1 | 0.3% | -8.2 | 0.7
O=C(Cn1nnc(-c2ccccc2)n1)N1CCN(c2ccc(F)cc2)CC1
 : -4.7 | -0.5 | -7.0 | 2.3% | 10.7 | -1.6
COc1ccc(NC(=O)c2cnn3c(C(F)(F)F)cc(-c4ccco4)nc23)cc1OC
 : -0.9 | 0.6 | -23.0 | 3.1% | -2.2 | 3.4
O=C(CCN1C(=O)COc2ccccc21)NCCN1CCc2ccccc2C1
 : -29.5 | -0.7 | 7.1 | -2.6%[38.3 µM] | 0.7 | -1.0
Cc1nonc1OCCn1nnnc1N
 : -13.9 | -0.2 | 0.0 | ? | 2.6 | -0.7
COc1cc(-c2nnc(NC(=O)CS(=O)(=O)c3ccc(C)cc3)o2)cc(OC)c1OC
 : -3.7 | 1.2 | 3.0 | 4.0% | ? | 2.0

# Compounds listed so far that have an NH in an aromatic ring:
# Order of results: D2 potentiator | TRPML1 agonist | CtBP-E1A inh | PINK1 expr mod | Six1-Eya2 blk | D2 ag
CCCCN(CCCC)CCn1cnc2c([nH]c3ccc(OC)cc32)c1=O
 : -6.0 | 0.5&1.5 | -4.1 | 0.2%&-2.7% | -2.9 | -4.0
Cc1[nH]c(=S)sc1Cc1ccc(F)cc1
 : -35.4 | 0.7 | 17.5 | 0.1% | 1.4 | -1.0
O=c1c2[nH]cnc2n(-c2ccc(F)cc2)c(=O)n1Cc1ccccc1
 : -17.4 | nt | -0.4 | 0.6% | 3.7 | -7.2

# The list goes on:
# Order of results: D2 potentiator | TRPML1 agonist | CtBP-E1A inh | PINK1 expr mod | Six1-Eya2 blk | D2 ag
OCCN(CCO)CC(O)COc1ccc(C23CC4CC(CC(C4)C2)C3)cc1 (stereo not given)
 : 0.8 | -0.3 | -8.1 | -2.1% | -7.9 | 2.8
Cn1c(N)c(C(=O)COC(=O)CCC(=O)c2cccs2)c(=O)n(C)c1=O
 : -26.2 | -0.3 | -3.7 | -0.5% | -0.6 | -2.1
OC(CN1CCCCC1)c1ccc(Br)cc1 (stereo not given)
 : -11.7 | 2.3 | 0.0 | -3.2% | -10.7 | -2.4
CCCCCCc1ccc(OCC(=O)O)cc1OCC(=O)O
 : -10.1 | 2.3 | 0.9 | 1.5% | 3.4 | -2.1
CCNC(=S)NNC(=O)CCn1cc(C)cn1
 : -24.6 | 0.3 | -6.8 | -1.0% | -2.9 | -2.9
COc1c(C)cc(Br)cc1C(=O)Nc1ccccc1C
 : -4.9 | 2.7 | 4.9 | 3.6% | 11.3 | -8.8
COc1ccc(CN2C(=NC(=O)COc3ccccc3)SC3CS(=O)(=O)CC32)cc1 (stereo not given)
 : -9.2 | -0.4 | 2.5 | 4.1% | -0.3 | -3.0
CN(C)CCCNc1nc(-c2ccc(Cl)cc2)nc2ccccc12
 : -47.7 | nt | nt | 0.4% | -2.5 | 1.0
Cc1ccc(NS(=O)(=O)c2ccc(CCC(=O)NCCO)cc2)cc1
 : -0.8 | -0.3 | -5.3 | -3.2%[38.3 µM] | -7.5 | -0.2
CCCCC1(COC(=O)CCC(=O)O)C(=O)N(c2ccccc2)N(c2ccccc2)C1=O
 : -9.5 | 0.0 | -14.7 | 1.6% | 0.8 | 1.5
CCOC(=O)c1c(C)c(C(=O)NCc2ccccn2)c(C)n1CC
 : -3.3 | 0.5 | -29.8 | -0.7%[38.3 µM] | -21.9 | -0.9
CCN(CC)CCN1C(=O)C2C(C(=O)Nc3cccc(SC)c3)C3C=CC2(O3)C1C(=O)NC1CCCC(C)C1C (stereo not given)
 : -12.7 | 0.2 | -5.6 | 2.7% | 4.6 | 1.9
COc1cc(OC)cc(C(=O)NCC2CCCN(C(=O)c3csc(C)n3)C2)c1 (stereo not given)
 : -7.5 | 0.4 | -29.2 | 1.6% | -6.7 | -1.9
Cc1ccc(S(=O)(=O)Nc2ccc(NC(=O)Nc3ccc(F)cc3F)cc2)cc1
 : -8.5 | -0.2 | 1.3 | ? | 4.1 | 2.3
O=C(NCC(c1cccs1)N1CCOCC1)c1ccccc1NS(=O)(=O)c1ccc(Br)cc1 (stereo not given)
 : -2.4 | 1.3 | -3.8 | 5.9% | -7.1 | 0.0
Cn1c(-c2ccc3c(c2)OCO3)cnc1NCc1ccc(Cl)cc1
 : -10.6 | -0.2 | -3.0 | -1.4% | -2.9 | -0.6
CC(C)N(C(=O)c1nn(C)c2c1CSc1ccccc1-2)C1CCCCC1
 : -10.1 | -0.1 | 1.7 | 8.2% | 0.3 | 6.2
Cc1ccccc1OCC(O)CN1CCN(CC(O)COc2ccccc2C)CC1 (stereo not given)
 : -26.7 | -0.4 | 0.7 | 1.1% | -9.5 | -3.2
Cc1nn(Cc2ccccc2Cl)c(C)c1C(=O)NCc1ccco1
 : -9.4 | -0.1 | 18.8 | 0.5% | 11.9 | -2.1
COc1ccc(CC(=O)Nc2cc(S(C)(=O)=O)ccc2Cl)cc1S(=O)(=O)N1CCOCC1
 : -17.3 | 1.5 | 0.6 | 0.4% | 1.5 | 2.4

# Brought forward from above: 2 compounds, then new ones.
SMILES,D2 potentiator,TRPML1 agonist,CtBP-E1A inh,PINK1 expr mod,Six1-Eya2 blk,D2 ag
Cc1nn(Cc2ccccc2Cl)c(C)c1C(=O)NCc1ccco1,-9.4,-0.1,18.8,0.5%,11.9,-2.1
COc1ccc(CC(=O)Nc2cc(S(C)(=O)=O)ccc2Cl)cc1S(=O)(=O)N1CCOCC1,-17.3,1.5,0.6,0.4%,1.5,2.4
NC(=O)c1ccccc1OCC(=O)N1CCCc2ccccc21,-8.4,0.3,3.4,-0.3%,0.8,3.4
C=CCC[C@@H](Cc1ccc(F)cc1)C(=O)OC[C@@H](Cc1c[nH]c2ccccc12)NC(=O)[C@H](CC=C)CC(=O)NCCO,2.0,-0.1,-3.4,17.5%,-7.8,-3.0
C[C@@]12C(=O)N(CC3CCCO3)CC(=O)N1[C@@H]1c3ccccc3OC[C@@H]1[C@@H]2c1ccccc1 (stereo not given in full),-6.9,-0.5,0.2,2.4%,1.2,-2.9
CN(CC(=O)Nc1ccc(F)c(F)c1F)C(=O)c1ccc2c(c1)NC(=O)CS2,1.7,0.6,-8.1,-0.9%,3.0,-2.0
NCCS(=O)(=O)O,-12.9,-0.1,-0.7,1.6%,3.1,-5.6
COc1cccc(CNc2nc3cc(-c4cccc(C(F)(F)F)c4)sc3c(=O)n2C)c1OC,-3.5,-0.5,-0.8,-0.3%,-2.0,-2.9
COc1ccc(/C=C2\SC(N3CCCCC3)=NC2=O)cc1,4.7,0.4,3.5,1.8%,2.6,0.9
CC1(C)NC(C)(C)C(O)(C(N)=O)C1=O (stereo not given),-5.4,-0.9,1.8,9.8%[38.3 µM],1.0,-1.1
CC1SCC(NC(=O)c2ccc(Cl)cc2)CS1 (stereo not given),-5.8,0.8,0.2,0.8%,8.1,-4.0
CCOc1cc(/C=N/NC(=O)C(OC)c2ccccc2)ccc1O (stereo not given),-5.3,0.4,-19.0,-0.5%,-8.4,-3.0
C1=C(c2ccccc2)Nc2nnnn2C1c1cccs1 (stereo not given),-16.5,0.7,-1.2,-0.7%,14.7,0.9
CC1(C)S[C@@H]2[C@H](NC(=O)[C@H](N)c3ccccc3)C(=O)N2[C@H]1C(=O)O,0.8&-10.9,-0.9&-0.3,3.5&-1.4,3.0%&0.7%,-15.6&-1.9,-5.6&-3.9
CC(OC(=O)c1ccc(-n2cnnn2)cc1)C(=O)Nc1ccccc1F (stereo not given),-5.3,0.3,12.1,2.9%,2.0,0.1
CCc1nc2ccc(C(=O)N3CCN(c4cccc(Cl)c4)CC3)cc2nc1CC,-8.3,2.5&1.4,?,0.9%&0.2%,-30.0,7.2
Cc1nc(-c2ccc(Cl)cc2)sc1C1(C)CC(c2ccncc2)=NO1 (stereo not given),-7.4,1.0,-1.5,0.2%,-0.6,-2.5
Clc1ccc(-c2ccnc(-n3cccc3)n2)s1,-5.4,1.2,31.2,5.7%,28.7,-2.8
CCc1ccc(NCc2cc3c(C)nn(-c4ccccc4)c3[nH]c2=O)cc1,-26.5,0.6,4.6,nt,?,-2.6
CCSc1nnc(NC(=O)c2ccc(Br)s2)s1,-17.9,0.2,-4.2,5.7%[38.3 µM],1.1,-2.2

# Bioassay records: PubChem, National Center for Advancing Translational Sciences (NCATS)
